Rango-impB inh = qHTS Assay for Inhibitors of Rango (Ran-regulated importin-beta cargo) - Importin beta complex formation. Rango CFP/YFP FRET sensor + importin beta, 45 min. 0.031% of 340,000 active. AID 540263, 2011. Potency, µM (highest dose often 92.2 µM), inactives show top-dose inhibition of complex formation. Importin subunit beta-1 (Homo sapiens), Q14974; active = rising FRET ratio curve, often small or poorly fitted; inconclusive = mostly compound fluorescence or quenching in the first reads; inactive = flat curves in all reads;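 note: potency is the fitted concentration of half-maximal effect; 0% = DMSO wells and 100% = buffer wells lacking importin beta; nearly all actives have a fitted effect of over 15% in size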
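FRET biosensor Rango (snurportin 1 IBB between N-terminal EYFP and C-terminal Cerulean), 50 nM in PBS/1 mM DTT/0.02% Tween-20/0.1% BSA, preincubated 5 min RT with compound; 0.125 microM importin beta added, 45 min RT, CFP/YFP FRET ratio read.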
GLA inh pH 4.5 = qHTS Assay for Inhibitors of Human alpha-Galactosidase at pH 4.5; Alpha-galactosidase A (Homo sapiens), P06280; AID 1467, 2008; purified enzyme, 4-MU-alpha-Gal fluorescence, pH 4.5; activity change, negative = inhibition, % at 105 µM; 230,000 tested, under 10 active; inconclusive = small, poorly fitted or top-dose-only inhibition, or a rising curve; inactive = flat fitted curve, though single readings scatter; no compound was filed as active;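 note: 0% = full activity with enzyme and -100% = basal without enzyme; dose as in the result columns while the protocol names 77 µM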
Target sequence (P06280 whole entry, looked up): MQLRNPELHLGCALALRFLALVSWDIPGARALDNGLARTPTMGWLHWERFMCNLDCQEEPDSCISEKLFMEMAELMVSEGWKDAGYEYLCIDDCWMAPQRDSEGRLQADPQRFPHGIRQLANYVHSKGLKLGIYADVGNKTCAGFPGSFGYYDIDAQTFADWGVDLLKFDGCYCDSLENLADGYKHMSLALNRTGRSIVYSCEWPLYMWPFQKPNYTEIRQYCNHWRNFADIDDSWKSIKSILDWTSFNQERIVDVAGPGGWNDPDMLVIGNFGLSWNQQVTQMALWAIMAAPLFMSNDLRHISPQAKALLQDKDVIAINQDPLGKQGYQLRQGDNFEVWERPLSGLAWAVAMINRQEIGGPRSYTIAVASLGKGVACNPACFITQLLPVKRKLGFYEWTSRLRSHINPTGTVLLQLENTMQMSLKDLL
miR-21 reporter = qHTS Assay for Modulators of miRNAs and/orActivators of miR-21; 340,000 tested, under 10 active; Potency, µM (titrated, usually from 38.3 µM), without a hit: top-dose reporter change, positive = more light; AID 2288, 2010; HeLa miR-21 FLuc reporter, luciferase, 48 h; active = well fitted rising curve with a large enough effect; inconclusive = small, poorly fitted or top-dose-only effect; inactive = no such curve, though single readings can be large or run the other way;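 note: % of control where 0% means no effect; miR-21 action dims this reporter so a rising signal means less miR-21 action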
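Compounds were titrated across several concentrations (up to approximately 40 uM) and incubated 48 hours with HeLa miR-21-FLuc reporter cells (miR-21 target sequence downstream of FLuc, endogenous miR-21). Readout was firefly luciferase luminescence after lytic detection reagent.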
Rango release inh = qHTS Assay for Inhibitors of RanGTP induced Rango (Ran-regulated importin-beta cargo) - Importin beta complex dissociation | Biochemical FRET Rango-importin beta, RanGTP-induced dissociation | Snurportin-1 (Homo sapiens) + GTP-binding nuclear protein Ran (Homo sapiens) + Importin … | 0.071% of 340,000 active | Potency, µM (top dose mostly 46.1 µM), for the others: at the top dose activity change, negative = inhibition | AID 540253, 2011; active means falling FRET ratio curve, often poorly fitted, with flat reads before Ran was added; inconclusive means other falling curves, or compound fluorescence or quenching; inactive means flat or rising ratio curve;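 note: potency is the fitted concentration of half-maximal effect; % of control where 0% means no effect; nearly all actives have a fitted effect of over 45% in size; -100% = wells without RanGTP and RCC1; the record marks most hits as doubtful in a second field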
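Recombinant Rango FRET biosensor (EYFP–snurportin 1 IBB–cerulean CFP10) at 0.1 uM premixed with 0.25 uM importin beta in PBS, 1 mM DTT, 0.02% Tween-20, 0.1% BSA. Compound added 5 min; RanGTP-RCC1 (0.6 uM Ran, 2 mM GTP, 0.2 uM RCC1) then triggers release, read at 45 min.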
Numbers without * were called inactive; ? = inconclusive; · = no result given; [ ] = remark or other dose. An excerpt (hit frequency here may not be typical).

The line under a structure holds: Rango-impB inh | GLA inh pH 4.5 | miR-21 reporter | Rango release inh
> CCOc1ccc(OCCSc2nc(N)cc(=O)[nH]2)cc1
→ 1.1% | 9 | -38% | -6%
> CCN(C(=O)Nc1cccc(Cl)c1)c1ccccc1
→ -1.6% | · | 0% | -7%
> COc1ccc(C(=O)C2CCCN(C(=O)C3CCOCC3)C2)cc1OC (stereo not drawn)
→ 8.0% | · | 1% | -11%
> COC(=O)c1ccc(COc2ccccc2/C=C(\C#N)C(=O)Nc2ccc(C)cc2)cc1
→ 3.0% | 4 | -78% | -3%
> Cc1c(CN2CCC(C)CC2)c(=O)n(-c2ccccc2)n1C
→ 2.6% | -2 | -2% | 18%
> CCOC(=O)c1c(NC(=O)Nc2ccccc2)sc(C)c1C
→ -4.2% | -2 | -2% | 18%
> O=C1C=C(Nc2ccccc2)C(=O)c2ccccc21
→ 0.9% | 1 | -40% | 12%
> Cc1ccc2c(c1)c(N=Nc1cccc(C(=O)O)c1)c(O)n2C
→ -0.4% | -6 | -4% | -11%
> O=C(Nc1nccs1)C1CCN(S(=O)(=O)c2cccs2)CC1
→ -1.9% | 7 | 2% | -2%
> CCN(CC)CCNc1nc2c(c(=O)[nH]c(=O)n2C)n1CC(O)COc1ccc(Cl)cc1Cl (stereo not drawn)
→ 0.0% | -7 | -4% | -15%
> O=[N+]([O-])c1cc(S(=O)(=O)N2CCCC2)ccc1SCCO
→ -0.3% | -15 | -1% | 5%
> CN1CCN(c2nc(-c3cccs3)cs2)CC1
→ -4.5% | 1[21.1 µM] | -29% | -14%
> CCN(CC(=O)Nc1c(F)cccc1F)C(=O)c1cc(S(=O)(=O)NCc2ccccc2)ccc1C
→ 0.1% | · | · | -5%
> COc1ccc(-c2nc3c(c4nnc(SC(C)C(=O)Nc5ccccc5)n24)COC(C)(C)C3)cc1 (stereo not drawn)
→ 2.4% | 2 | 2% | 6%
> Cc1ccc(OCC(=O)NCc2ccco2)cc1C
→ 1.0% | -4 | -6% | 1%
> Cn1cccc1C(=O)NNC(=O)COc1ccccc1Cl
→ 3.3% | · | · | -10%
> CC1=C(C(=O)OCc2ccccc2)C(c2ccccc2OS(=O)(=O)c2ccc(C)cc2)NC(=O)N1CCCC(=O)O (stereo not drawn)
→ -1.3% | · | · | 7%
> Cc1nc(Nc2ccc3c(c2)OCCO3)c2nnn(Cc3ccccc3Cl)c2n1
→ ? | -1 | 1% | -1%
> CCOC(=O)c1c(NC(=O)CSc2ncnc3[nH]ncc23)sc2c1CCC(C)C2 (stereo not drawn)
→ -0.9% | -15 | 5% | 11%
> N/C(=N\OC(=O)c1ccc2c(c1)OCO2)c1cccc(Br)c1
→ 0.1% | -6 | -41% | 12%
> COc1cc(C(C)=O)ccc1COc1ccc(C(=O)OCC(=O)NC2CCS(=O)(=O)C2)cc1OC (stereo not drawn)
→ -1.0% | -1 | -2% | 3%
> Cc1ccc(SCc2nc3ncccn3c2Br)cc1
→ 0.3% | 2 | -42% | 6%
> COc1ccc(C)cc1Nc1nc(N)c2ccccc2n1
→ 3.7% | · | -14% | 8%
> COc1ccc(S(=O)(=O)N(C)C)cc1NCC(=O)Nc1cccc(C#N)c1
→ -2.6% | -6 | -1% | 17%
> CSc1nc2c(cc1C#N)CCCCC2
→ -0.5% | 2 | -4% | -2%
> Cn1c(=O)c2c(nc(Br)n2CCSc2ncccn2)n(C)c1=O
→ 4.4% | 5 | -3% | -8%
> CC12CC(NC(=O)N1Cc1ccccc1)c1ccccc1O2 (stereo not drawn)
→ -0.4% | 6 | -3% | 13%
> c1ccc2c(c1)nc(N1CCOCC1)c1c3ccccc3[nH]c21
→ -2.5% | -2 | 24% | -4%
> C=CCNCCCCOc1ccccc1-c1ccccc1
→ -4.3% | -4 | -7% | -8%
> COc1ccc(C2CC(=O)N(c3ccccc3)C3=C2C(=O)CCC3)cc1 (stereo not drawn)
→ 3.5% | 3 | 1% | 3%
> C[C@@H]1NC(=O)c2cc([N+](=O)[O-])cc(I)c2OCC[C@@H](C(=O)NC(CC(=O)O)C(N)=O)NC(=O)[C@H](CCC(=O)O)NC1=O (stereo partly drawn)
→ 1.9% | -7 | -1% | -5%
> CCn1c(=O)c(C(=O)Nc2ccccc2C)c(O)c2ccccc21
→ 0.0% | -16 | -17% | -5%
> O=c1cc(CN2CCN(c3ccccc3)CC2)c2cc(O)c(-c3ccccc3)cc2o1
→ -2.4% | -8 | -2% | -8%
> Cc1nc(C)c(-c2csc(Nc3cccnc3)n2)s1
→ -6.4% | 2 | -34% | 13%
> CC1=NN(C(=O)c2c(Br)c(C)nn2C)C(O)(C(F)(F)F)C1 (stereo not drawn)
→ 3.7% | 6 | -5% | 22%
> O=C(CN1CCCCCC1)NCC1CCCO1 (stereo not drawn)
→ 1.4% | -21 | -4% | -11%
> CCOC(=O)N1CCC(N2Cc3cccc(C(=O)NCC4CCN(CC(C)C)C4)c3C2=O)CC1 (stereo not drawn)
→ -3.3% | -2 | 0% | -2%
> CN1C(=O)C(C)(C)c2cc(S(=O)(=O)N(C)Cc3ccccc3)ccc21
→ -0.3% | · | -1% | -3%
> CCc1cccc2c(C(=O)C(NC(C)CC)c3ccccc3)c[nH]c12 (stereo not drawn)
→ -1.4% | · | 7% | -12%
> COc1ccc(C(=O)N/N=C/c2ccc3cccc(O)c3n2)cc1
→ 0.0% | -3 | -4% | 5%
> CCc1cc(CNC(=O)CC2C(=O)NCCN2Cc2ccccc2C(F)(F)F)on1 (stereo not drawn)
→ -2.1% | -1 | 1% | -11%
> COc1ccc(Nc2nc(CC(C)=O)ns2)cc1OC
→ 0.3% | 2 | -19% | -7%
> O=C(COC(=O)c1ccc(Cl)nc1)NCCc1ccc(F)cc1
→ -1.3% | · | · | -6%
> O=C(CN1C(=O)NC2(CCc3ccccc32)C1=O)Nc1ccccc1C(F)(F)F (stereo not drawn)
→ 0.1% | · | · | -4%
> O=C(CN1C(=O)NC2(CCCC2)C1=O)N1CCN(S(=O)(=O)c2cccc(F)c2)CC1
→ 3.7% | · | -1% | -8%
> Cc1ccc(CCc2nnc(SCC(=O)Nc3cccc(Cl)c3)n2-c2ccccc2)o1
→ -0.8% | 4 | 1% | 21%
> CC(=O)NC1CC2CCC(C1)N2Cc1ccc(C)cc1 (stereo not drawn)
→ -4.3% | 1 | -5% | 3%
> COc1ccc(OC)c(NC(=S)NCC(c2cccnc2)N2CCOCC2)c1 (stereo not drawn)
→ -4.1% | -1 | -1% | 2%
> O=C(NC(=S)NNC(=O)c1ccc(Cl)cc1Cl)c1cccnc1
→ -2.3% | -3 | -21% | 1%
> NC(=O)C1CC12c1ccccc1-c1ccccc12 (stereo not drawn)
→ 3.3% | · | -4% | 0%
> O=S(=O)(CC(O)(c1ccccc1)c1ccccc1)CC(O)(c1ccccc1)c1ccccc1
→ -3.8% | · | · | 9%
> COc1cc(/C=N/N2CCN(Cc3ccccc3)CC2)cc(OC)c1OC(C)=O
→ 1.6% | · | -2% | 0%
> N#Cc1ccccc1S(=O)(=O)N1CCN(C(=O)C2COc3ccccc3O2)CC1 (stereo not drawn)
→ -3.3% | · | · | 1%
> CN(C)CCn1c(=O)n(Cc2ccccc2)c(=O)c2c3c(sc21)CCCCC3
→ -2.2% | · | -1% | -10%
> CC(C)N(C(=O)CC1ON(C)C(=O)N1c1ccc(Cl)cc1)C(C)C (stereo not drawn)
→ -0.2% | -6 | -3% | -4%
> Cc1nnc(C)n1/N=C/C=C/c1ccccc1
→ -1.6% | 4 | -1% | 3%
> CCCS(=O)(=O)C(=C1NCCO1)S(=O)(=O)CCC
→ 0.9% | -5 | -1% | 2%
> CCNC(=S)N1CCN(CCN=CC2=C(O)CC(c3ccco3)CC2=O)CC1 (stereo not drawn)
→ -4.0% | 0 | 0% | 3%
> O=C(O)CCC(=O)NCC(=O)c1ccc(F)cc1
→ -5.3% | -1 | 4% | -5%
> CN(CC(=O)Nc1ccccc1Cl)C(=O)COC(=O)CSc1ccc(F)cc1
→ -0.3% | · | · | 29%

Compound profiles (already shown). Order of values: Rango-impB inh | GLA inh pH 4.5 | miR-21 reporter | Rango release inh
O=C(O)CCC(=O)NCC(=O)c1ccc(F)cc1 is listed as -5.3% | -1 | 4% | -5%
COc1cc(/C=N/N2CCN(Cc3ccccc3)CC2)cc(OC)c1OC(C)=O is listed as 1.6% | · | -2% | 0%
O=C(COC(=O)c1ccc(Cl)nc1)NCCc1ccc(F)cc1 is listed as -1.3% | · | · | -6%
CN(CC(=O)Nc1ccccc1Cl)C(=O)COC(=O)CSc1ccc(F)cc1 is listed as -0.3% | · | · | 29%

Other entries follow.
The line under a structure holds: Rango-impB inh | GLA inh pH 4.5 | miR-21 reporter | Rango release inh
> O=C(Nc1ccc(CN2CCS(=O)(=O)CC2)cc1)c1ccc(F)cc1
→ 4.2% | 2 | -1% | 15%
> CCc1nnc(NC(=O)CSCc2cc(=O)n3cc(C)sc3n2)s1
→ -3.0% | · | -1% | 17%
> COc1cc2c(C#N)c(N3CCOCC3)nc(N)c2c(N)n1
→ 7.8% | 14 | -3% | ?
> O=C(NCCc1ccccc1)c1ccc(NC(=O)c2cccnc2)cc1
→ -1.0% | · | -10% | 0%
> CC(C)(C)NC(=O)NC(=O)CN1CCC(Cc2ccccc2)CC1
→ ? | -10 | -2% | 1%
> Cc1ccc(C(C)C)c(OCC(=O)OCC(=O)NC2CC2)c1
→ 3.6% | · | · | -14%
> O=C(CN1CCN(c2ccc(F)cc2)CC1)NCc1ccc(Cl)cc1
→ 6.2% | · | 8% | 20%
> O=C(c1cc(-c2ccccc2)nc2ccccc12)N1CCCc2ccccc21
→ -0.2% | -4 | -7% | 0%
> COC(=O)c1c(C)oc2c1cc(NS(=O)(=O)c1cccs1)c1ccccc12
→ -3.5% | -15 | 1% | -6%
> CCn1c(CC(=O)Nc2ccccc2F)nnc1SCC(=O)N1CCOCC1
→ 4.4% | · | -4% | 0%
> C/C(=N\Nc1nccnc1Cl)c1ccc([N+](=O)[O-])cc1
→ ? | -7 | -51% | -19%
> CC(=O)NCCn1c(SCc2cc(F)ccc2F)nc2ccccc2c1=O
→ 2.9% | 4 | 0% | 4%
> CCCOC(=O)Nc1ccccc1C(N)=O
→ -0.3% | -18 | -11% | 19%
> COc1ccccc1C(=O)N1CCN(C(=O)COc2cccc(C)c2)CC1
→ -1.6% | -1 | -4% | 2%
> Cn1c(NC2CCCCC2)cc(=O)n(C)c1=O
→ 0.1% | · | -7% | 2%
> CC1(C)OC(c2ccccc2)=C/C(=C/C=C2C(=O)c3ccccc3C2=O)O1
→ 7.0% | -2 | 2% | 0%
> O=C(c1ccc(Cl)c(S(=O)(=O)N2CCOCC2)c1)N1CCN(c2ccccn2)CC1
→ 2.3% | · | · | 1%
> COc1ccc(/C=N/NC(=S)Nc2cccc(C(=O)O)c2)cc1OC
→ 0.4% | 11 | -7% | -5%
> CCOC(=O)[C@@H]1[C@H]2COc3cc(OC)ccc3[C@@H]2N2C(=O)N(c3ccc(C)cc3)C(=O)[C@]12C
→ -3.8% | · | · | 9%
> O=C1COc2ccc3ccccc3c21
→ 3.0% | · | -10% | 23%
> O=C(Nc1ccccc1Cl)c1ccc2c(c1)N(Cc1ccc(F)cc1)C(=O)CS2=O (stereo not drawn)
→ -3.4% | 4 | -9% | 14%
> CCOC(=O)c1c(C)[nH]c(C(=O)OCC(=O)NCc2ccccc2)c1C
→ 0.4% | · | · | 5%
> CCNC(=O)NC(=O)COC(=O)c1ccccc1SCC(=O)NC(=O)NCC
→ ? | 14 | -28% | ?
> O=C(CN1C(=O)NC2(CCCc3ccccc32)C1=O)c1ccc(Br)cc1 (stereo not drawn)
→ 0.0% | · | · | -12%
> N=c1c(C(=O)NC2CCCC2)cc2c(=O)n3ccccc3nc2n1C1CCCC1
→ ? | 0 | -10% | ?
> COc1ccc(OC)c(Cc2nnc(CCC(=O)NCc3ccsc3)o2)c1
→ -2.9% | 4 | -17% | -3%
